# Env fusion inh: inhibitors of HIV Env-mediated cell fusion; HeLa-JRFL Env/CEM21 cell fusion, luciferase; inhibition, % at 12.3 µM; actives 1.1% (n = 360,000);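 active = mean replicate inhibition score of at least 50 and every replicate individually at or above 50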;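 note: 0% = plate neutral controls and 100% = maraviroc near 300 nM; one replicate is shown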
# * marks the source's active call; other numbers are inactive results; [ ] = remark or other dose. This is a subset (hit frequency here may not be typical).
Molecule	Env fusion inh
CO[C@@H]1CN(C)C(=O)c2ccc(NC(=O)C3CCCC3)cc2OC[C@@H](C)N(C(=O)CC2CC2)C[C@@H]1C	6[16.7 µM]
CO[C@@H]1CN(C)C(=O)c2cc(NS(C)(=O)=O)ccc2OC[C@H](C)NC[C@H]1C	-8[16.7 µM]
O=C(C1=C[C@@H](c2ccc3c(c2)OCO3)C[C@@H](OCc2ccc(CO)cc2)O1)N1CCN(Cc2ccccc2)CC1	2[16.7 µM]
COCC(=O)Nc1ccc2c(c1)OC[C@@H](C)N(C(=O)c1ccccn1)C[C@H](C)[C@H](OC)CN(C)C2=O	4[16.7 µM]
COCC(=O)N1CCN(C(=O)C(=O)c2cccc(C(F)(F)F)c2)CC1	-9
COc1ccc2c3c([nH]c2c1)[C@H](CO)N(C(=O)Nc1ccc(F)cc1)CC31CCN(S(=O)(=O)c2cccc(C)c2)CC1	38[16.7 µM]
COCC(=O)Nc1ccc2c(c1)OC[C@H](C)N(C(=O)C1CCCC1)C[C@H](C)[C@@H](OC)CN(C)C2=O	-9[16.7 µM]
C[C@H](NC(=O)N(C)C[C@@H]1OCc2ccccc2-c2ccccc2C(=O)N([C@@H](C)CO)C[C@H]1C)c1ccccc1	-4[16.7 µM]
C[C@@H]1CN([C@@H](C)CO)C(=O)Cc2cc(NC(=O)Nc3cccc4ccccc34)ccc2O[C@H]1CN(C)S(C)(=O)=O	1[16.7 µM]
CC(C)NC(=O)Nc1cccc2c1O[C@@H](CN(C)C)[C@@H](C)CN([C@@H](C)CO)C2=O	-10[16.7 µM]
CN(C)C(=O)C[C@H]1CC[C@@H]2[C@@H](COc3ccc(NC(=O)NCc4ccccc4)cc3C(=O)N2C)O1	16[16.7 µM]
C[C@@H]1CN([C@@H](C)CO)C(=O)c2cc(-c3cccc(F)c3)cnc2O[C@H]1CN(C)C(=O)C1CC1	-8[16.7 µM]

# Further structures follow.
Molecule	Env fusion inh
COc1ccc2c3c(n(C)c2c1)[C@@H](CO)N(C(=O)Nc1ccc(F)cc1)CC31CN(C(=O)Nc2c(C)noc2C)C1	-28[16.7 µM]
COC(=O)C1=C(C)N(Cc2ccc(F)cc2)C(=S)NC1c1cccc(Br)c1 (stereo not drawn)	6
O=C(NCc1ccccc1)[C@@H]1CCCN1C(=O)[C@H]1CCCN1C(=O)c1ccc(Cl)cc1	18
COc1ccccc1CNC(=O)C[C@H]1C[C@H]2c3cc(NS(=O)(=O)c4ccc(F)cc4)ccc3O[C@H]2[C@H](CO)O1	-12[16.7 µM]
CCS(=O)(=O)Nc1ccc2c(c1)C(=O)N(C)[C@@H]1CC[C@H](CC(=O)NCCOC)O[C@H]1CO2	16[16.7 µM]
COc1cccc(C(=O)Nc2ccc3c(c2)C(=O)N(C)C[C@H](OC)[C@@H](C)CN[C@@H](C)CO3)c1	11[16.7 µM]
O=C(C[C@@H]1C[C@@H]2c3cc(NC(=O)C4CCOCC4)ccc3O[C@@H]2[C@@H](CO)O1)NCc1cccnc1	-21[16.7 µM]
O=C(C[C@@H]1CC[C@@H]2[C@H](COC[C@@H](O)CN2Cc2cccc(Cl)c2)O1)Nc1nccs1	21[16.7 µM]
CO[C@@H]1CN(C)C(=O)c2ccc(NC(=O)c3ccc4c(c3)OCO4)cc2OC[C@@H](C)N(CCC(F)(F)F)C[C@H]1C	26[16.7 µM]
O=C(/C=C(\Nc1cccc(OC(F)F)c1)c1ccccc1)c1ccccc1	-2
CO[C@@H]1CN(C)C(=O)c2ccc(NC(=O)c3ccccn3)cc2OC[C@@H](C)N(C(=O)Nc2ccccc2Cl)C[C@H]1C	32[16.7 µM]
CO[C@H]1CN(C)C(=O)c2ccc(NC(=O)NC(C)C)cc2OC[C@@H](C)N(C)C[C@@H]1C	-2[16.7 µM]

# Later entries
Molecule	Env fusion inh
O=C([C@H]1[C@H](CO)[C@H]2Cn3c(cccc3=O)[C@@H]1N2Cc1cocn1)N1CCCCC1	-4[16.7 µM]
C[C@H]1CN([C@@H](C)CO)S(=O)(=O)c2ccc(C#CC3CCCC3)cc2O[C@@H]1CN(C)C(=O)Cc1ccccc1	3[16.7 µM]
C[C@@H]1CN([C@H](C)CO)C(=O)c2ccccc2-c2ccccc2CO[C@H]1CN(C)C(=O)c1ccncc1	-3[16.7 µM]
CNC[C@H]1OCCCC[C@H](C)Oc2ccc(NC(=O)Nc3c(C)noc3C)cc2C(=O)N([C@@H](C)CO)C[C@@H]1C	-8[16.7 µM]
CCC(=O)N1C[C@H](C)[C@@H](OC)CN(C)C(=O)c2ccc(NC(=O)Nc3ccc(Cl)cc3)cc2OC[C@H]1C	-14[16.7 µM]
CC(C)[C@H](C)NC(=O)N(C)C[C@H]1OCc2ccccc2-c2ccccc2C(=O)N([C@H](C)CO)C[C@@H]1C	25[16.7 µM]
O=C(C1=C[C@H](c2ccccc2)C[C@H](OCc2ccc(CO)cc2)O1)N1CCCC1	-6[16.7 µM]
CO[C@@H]1CN(C)C(=O)c2cc(NS(C)(=O)=O)ccc2OC[C@H](C)N(C(=O)C2CCOCC2)C[C@H]1C	0[16.7 µM]
C/C=C/c1ccc2c(c1)O[C@@H](CN(C)C(=O)Cc1cccnc1)[C@@H](C)CN([C@@H](C)CO)S2(=O)=O	-6[16.7 µM]
C[C@H]1CN([C@@H](C)CO)C(=O)c2cc(-c3cncnc3)cnc2O[C@@H]1CN(C)Cc1ccc(Oc2ccccc2)cc1	1[16.7 µM]
CO[C@H]1CN(C)C(=O)c2cc(NC(=O)C3CC3)ccc2OC[C@@H](C)N(CCC(F)(F)F)C[C@H]1C	-8[16.7 µM]
CCCNC(=O)N1CC2(C1)[C@@H](c1ccccc1)[C@H](CO)N2CC1CC1	-16[16.7 µM]

# Going on with the list.
Molecule	Env fusion inh
COCCN1C(=O)[C@H]2C[C@@]13O[C@H](c1ccccn1)N=C3CC1c3ccccc3C[C@@]12C (stereo partly drawn)	-5
C[C@H]1CN([C@@H](C)CO)C(=O)c2c(c3ccccc3n2C)-c2ccccc2CO[C@@H]1CN(C)C(=O)CCC(F)(F)F	36[16.7 µM]
C[C@H]1CCCCO[C@H](CN(C)C)[C@@H](C)CN([C@@H](C)CO)C(=O)c2cc(NS(=O)(=O)c3ccc(Cl)cc3)ccc2O1	-8[16.7 µM]
CCCC(=O)Nc1ccc2c(c1)C(=O)N(C)C[C@H](OC)[C@H](C)CN(Cc1nccs1)[C@H](C)CO2	30[16.7 µM]
C[C@@H]1CN([C@H](C)CO)C(=O)c2c(c3ccccc3n2C)-c2ccccc2CO[C@@H]1CN(C)S(=O)(=O)c1cn(C)cn1	2[16.7 µM]
CN1C(=O)c2cc(NC(=O)NC3CCCC3)ccc2OC[C@@H]2O[C@H](CC(=O)NCC3CC3)CC[C@H]21	10[16.7 µM]
C[C@@H]1CN([C@@H](C)CO)C(=O)c2cc(NC(=O)Cc3ccccc3)ccc2O[C@H]1CN(C)S(C)(=O)=O	-5[16.7 µM]
CO[C@H]1CN(C)C(=O)c2cc(NC(=O)Cc3ccccc3)ccc2OC[C@H](C)NC[C@H]1C	13[16.7 µM]
C[C@@H]1CN([C@@H](C)CO)C(=O)Cc2cc(NC(=O)Nc3ccc(F)cc3)ccc2O[C@H]1CN(C)Cc1ccc(C(F)(F)F)cc1	69*[16.7 µM]
COC(=O)C[C@H]1CC[C@H]2[C@H](COc3ccc(NC(=O)c4cccc(Cl)c4)cc3C(=O)N2C)O1	11[16.7 µM]
COc1ccc(NC(=O)Nc2ccc3c(c2)C(=O)N(C)C[C@H](OC)[C@H](C)CN[C@@H](C)CO3)cc1	-8[16.7 µM]
CO[C@H]1O[C@H](CO)[C@@H](OC(=O)Nc2ccccc2-c2ccccc2)[C@H](OC(=O)Nc2ccccc2-c2ccccc2)[C@@H]1OC(=O)Nc1ccccc1-c1ccccc1	16[16.7 µM]

# Next part (2 carried over from the part before).
Molecule	Env fusion inh
COc1ccc(NC(=O)Nc2ccc3c(c2)C(=O)N(C)C[C@H](OC)[C@H](C)CN[C@@H](C)CO3)cc1	-8[16.7 µM]
CO[C@H]1O[C@H](CO)[C@@H](OC(=O)Nc2ccccc2-c2ccccc2)[C@H](OC(=O)Nc2ccccc2-c2ccccc2)[C@@H]1OC(=O)Nc1ccccc1-c1ccccc1	16[16.7 µM]
COc1ccccc1C#Cc1cnc2c(c1)C(=O)N([C@@H](C)CO)C[C@H](C)[C@@H](CN(C)C(=O)c1ccc3c(c1)OCO3)O2	4[16.7 µM]
CN(C)C(=O)[C@@H]1[C@@H](CO)[C@@H]2Cn3c(ccc(/C=C/c4ccccc4)c3=O)[C@@H]2N1CC1CC1	-20[16.7 µM]
CCS(=O)(=O)Nc1ccc2c(c1)C(=O)N(C)[C@H]1CC[C@@H](CC(=O)N[C@H]3CCN(Cc4ccccc4)C3)O[C@H]1CO2	-5[16.7 µM]
COc1ccccc1C#Cc1cnc2c(c1)C(=O)N([C@@H](C)CO)C[C@@H](C)[C@H](CN(C)C(=O)c1ccc3c(c1)OCO3)O2	1[16.7 µM]
CC(C)NC(=O)Nc1ccc2c(c1)C(=O)N([C@H](C)CO)C[C@@H](C)[C@H](CN(C)CC1CCCCC1)OCCCC[C@@H](C)O2	23[16.7 µM]
COCC(=O)N1C[C@@H](C)[C@@H](OC)CN(C)C(=O)c2cc(NC(=O)Nc3cccc(F)c3)ccc2OC[C@@H]1C	20[16.7 µM]
CO[C@H]1CN(C)C(=O)c2cc(NC(=O)C3CCOCC3)ccc2OC[C@@H](C)N(Cc2cccnc2)C[C@H]1C	3[16.7 µM]
COc1ccccc1-n1c(Cc2cccc3ccccc23)nnc1SCC(=O)O	3
Cc1ccc(S(=O)(=O)N(C)C[C@@H]2Oc3ccc(NS(=O)(=O)c4cn(C)cn4)cc3C(=O)N([C@H](C)CO)C[C@@H]2C)cc1	16[16.7 µM]
CO[C@@H]1CN(C)C(=O)c2ccc(NS(=O)(=O)CC(F)(F)F)cc2OC[C@H](C)NC[C@H]1C	11[16.7 µM]
N#Cc1cccc(C(=O)NCC2CCN(C(=O)C(=O)c3cc4ccccc4o3)CC2)c1	-11
CCCN1C[C@H](C)[C@@H](OC)CN(C)C(=O)c2cc(NC(=O)C3CCC3)ccc2OC[C@@H]1C	9[16.7 µM]

# Later entries
Molecule	Env fusion inh
O=C(C[C@@H]1C=C[C@@H](NC(=O)c2ccccn2)[C@H](CO)O1)NCc1cc(F)cc(F)c1	7[16.7 µM]
COc1ccccc1-c1ccc2n(c1=O)C[C@H]1[C@H](CO)[C@@H](C(=O)N3CCCCC3)N(C)[C@@H]21	2[16.7 µM]
C[C@@H]1CCCCO[C@@H](CN(C)S(=O)(=O)c2cccs2)[C@@H](C)CN([C@H](C)CO)C(=O)c2cc(NC(=O)Nc3cccc4ccccc34)ccc2O1	24[16.7 µM]
CO[C@@H]1CC[C@H]2CCOc3c(C#N)cccc3C(=O)N(C)[C@@H](C)C(=O)N(C)C[C@H]1O2	6[16.7 µM]
CO[C@H](CN(C)C(=O)C1CC1)[C@@H](C)CN(C(=O)Nc1ccc(C(F)(F)F)cc1)[C@H](C)CO	10[16.7 µM]
C[C@H]1CN(c2ccc(N3CCNC[C@@H]3C)cc2C#N)CCN1Cc1ccccc1	22
CN(C)c1ccc2c(c1)[C@H]1C[C@H](CC(=O)O)O[C@@H](CO)[C@H]1O2	-8[16.7 µM]
CCCN1C[C@@H](C)[C@@H](OC)CN(C)C(=O)c2cc(NC(=O)COC)ccc2OC[C@@H]1C	-13[16.7 µM]
COc1cccc(S(=O)(=O)N(C)C[C@H]2OCc3ccccc3-c3c(n(C)c4ccccc34)C(=O)N([C@@H](C)CO)C[C@@H]2C)c1	-6[16.7 µM]
C[C@H](NC(=O)C[C@H]1C[C@@H]2c3cc(NC(=O)Cc4ccncc4)ccc3O[C@@H]2[C@H](CO)O1)c1ccccc1	-12[16.7 µM]
COc1ccccc1CNC(=O)C[C@@H]1CC[C@H]2[C@@H](COC[C@H](O)CN2Cc2cccc(-c3ccncc3)c2)O1	-3[16.7 µM]
COc1ccccc1NC(=O)N[C@H]1CC[C@H](CCNS(=O)(=O)c2ccccc2)O[C@H]1CO	3[16.7 µM]

# As entered above:
# Result of `O=C(C[C@@H]1C=C[C@@H](NC(=O)c2ccccn2)[C@H](CO)O1)NCc1cc(F)cc(F)c1` under Env fusion inh: 7[16.7 µM]
# Result of `C[C@H]1CN(c2ccc(N3CCNC[C@@H]3C)cc2C#N)CCN1Cc1ccccc1` under Env fusion inh: 22
# Result of `COc1ccccc1NC(=O)N[C@H]1CC[C@H](CCNS(=O)(=O)c2ccccc2)O[C@H]1CO` under Env fusion inh: 3[16.7 µM]
# Result of `CO[C@H](CN(C)C(=O)C1CC1)[C@@H](C)CN(C(=O)Nc1ccc(C(F)(F)F)cc1)[C@H](C)CO` under Env fusion inh: 10[16.7 µM]
# Result of `CCCN1C[C@@H](C)[C@@H](OC)CN(C)C(=O)c2cc(NC(=O)COC)ccc2OC[C@@H]1C` under Env fusion inh: -13[16.7 µM]
# Result of `CO[C@@H]1CC[C@H]2CCOc3c(C#N)cccc3C(=O)N(C)[C@@H](C)C(=O)N(C)C[C@H]1O2` under Env fusion inh: 6[16.7 µM]

# The list continues.
Molecule	Env fusion inh
O=C(C[C@@H]1C=C[C@@H](NS(=O)(=O)c2ccc(F)cc2)[C@@H](CO)O1)NC1CCCCC1	-92[16.7 µM]
C[C@@H]1CN([C@H](C)CO)C(=O)c2cc(NS(=O)(=O)c3cn(C)cn3)ccc2O[C@@H]1CN(C)C(=O)Nc1ccc(F)cc1	-11[16.7 µM]
C/C=C/c1ccc([C@@H]2[C@H](CO)N(CC3CC3)C23CN(C(=O)COC)C3)cc1	-6[16.7 µM]
CO[C@H]1CN(C)C(=O)c2cc(NC(=O)c3ccccc3F)ccc2OC[C@H](C)N(C(C)=O)C[C@H]1C	4[16.7 µM]
C[C@@H]1CN([C@H](C)CO)C(=O)c2cc(NS(=O)(=O)c3ccccc3)ccc2O[C@@H]1CN(C)C(=O)Nc1ccc(F)cc1	3[16.7 µM]
CCCN(C)C[C@H]1OCCCC[C@@H](C)Oc2ccc(NS(=O)(=O)c3ccc(C)cc3)cc2C(=O)N([C@H](C)CO)C[C@H]1C	-123[16.7 µM]
CC(C)NC(=O)N[C@H]1CC[C@@H](CCNC(=O)C2CCCC2)O[C@H]1CO	0[16.7 µM]
CO[C@@H]1CN(C)C(=O)c2cc(NS(=O)(=O)CC(F)(F)F)ccc2OC[C@H](C)N(C(=O)NC(C)C)C[C@@H]1C	-6[16.7 µM]
